Compound activity from PubChem BioAssay.
NOMO-1 viab = NOMO-1 AML cell viability reduction, primary screen, STK33 inhibitor project, CellTiter-Glo luminescence; NOMO-1 AML viability, 72 h; inhibition, % (test concentration not listed); actives 7.5% (n = 37,000); AID 2330, 2010;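 active = most replicates above 80%; inconclusive = exactly half above 80%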;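 note: wells of about 30 µL received 25 nL stock; 0% = median of vehicle wells and 100% = reference inhibitor level; the first replicate is given; inactives centre near 10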
Numbers without * were called inactive; ? = inconclusive. Only part of the results is shown, so the mix of outcomes need not match the whole.

SMILES	NOMO-1 viab
C[C@H]1CN([C@@H](C)CO)C(=O)c2cccc(NS(C)(=O)=O)c2O[C@@H]1CN(C)S(=O)(=O)c1ccc(Cl)cc1	-7
Cc1nnc(SCC(=O)Nc2ccc(Br)c(C)c2C)s1	24
Cc1noc(C)c1NC(=O)Nc1cccc2c1O[C@@H](CN(C)S(=O)(=O)c1ccc(F)cc1)[C@H](C)CN([C@H](C)CO)C2=O	9
C=CCn1c(=O)c2c(C)c(C)sc2n2c(Nc3ccc(C(=O)OCC)cc3)nnc12	29
O=C(CSc1nnc(-c2ccccc2)n1-c1ccc(Cl)cc1)Nc1ccc(Cl)cc1	83*
C[C@@H]1CN([C@@H](C)CO)C(=O)c2cccc(NC(=O)Nc3ccccc3)c2O[C@@H]1CN(C)C(=O)Nc1ccc(F)cc1	25
Cc1ccc(NC(=O)CC(=O)Nc2ccc(C)cc2)cc1	2
C[C@@H]1CN([C@H](C)CO)C(=O)c2cc(NC(=O)NC3CCCCC3)ccc2O[C@H]1CN(C)CC1CCCCC1	46
O=C1Nc2c(ccc(Cl)c2Cl)C(=O)C1(F)c1ccccc1 (configuration not stated)	28
C[C@H]1CN([C@@H](C)CO)C(=O)Cc2cc(NS(=O)(=O)c3ccc(F)cc3)ccc2O[C@@H]1CN(C)C(=O)Nc1ccc2c(c1)OCO2	9
COc1ccc(NCC(O)Cn2ccc3ccccc32)cc1 (configuration not stated)	-11
Cc1sc2nc3c4ccccc4c(NCc4ccccn4)nn3c(=O)c2c1C	?
CS(=O)(=O)N(CC(=O)Nc1ccc(C(F)(F)F)cc1)c1ccccc1Cl	21
COc1ccc(C(CC(=O)O)NC(N)=O)cc1 (configuration not stated)	14
Cc1ccc(S(=O)(=O)N(C)C[C@@H]2Oc3ccc(NC(=O)Nc4ccc(C(F)(F)F)cc4)cc3C(=O)N([C@@H](C)CO)C[C@H]2C)cc1	75
COc1cc(O)cc(C(=O)O)c1Oc1cc(C)cc(O)c1C(=O)O	24
C[C@H](CO)N1C[C@H](C)[C@@H](CN(C)Cc2ccc(C(=O)O)cc2)Oc2ccc(NC(=O)c3ccncc3)cc2C1=O	-4
O=C(C1Cc2ccccc2C1)N1CCOCC1	-1
CC(C)NC(=O)N(C)C[C@@H]1Oc2ccc(NC(=O)NC3CCCCC3)cc2C(=O)N([C@@H](C)CO)C[C@H]1C	-14
C[C@@H]1CCCCO[C@H](CN(C)C(=O)CCC(F)(F)F)[C@@H](C)CN([C@H](C)CO)C(=O)c2cc(NC(=O)C3CCCCC3)ccc2O1	1
COc1ccc(NC(=O)C(=O)NCC(=O)Nc2ccccc2OC)cc1	-18
CS(=O)(=O)N(CC(=O)NC1CC1)c1ccc(Cl)c(Cl)c1	6
C/C=C1\[C@H](O[C@@H]2O[C@H](CO)[C@@H](O)[C@H](O)[C@H]2O)OC=C(C(=O)O)[C@H]1CC(=O)OCCc1ccc(O)cc1	2
C[C@H](CO)N1C[C@H](C)[C@H](CN(C)S(=O)(=O)c2ccc(Cl)cc2)Oc2ccc(NC(=O)CCC(F)(F)F)cc2C1=O	10
O=C(c1ccccc1)N(c1ccccc1)c1ccccc1	39
C[C@@H]1CN([C@@H](C)CO)C(=O)c2cc(NC(=O)Cc3ccccc3)ccc2O[C@@H]1CN(C)S(=O)(=O)c1ccccc1	1
CC(C)NC(=O)Nc1ccc2c(c1)C(=O)N([C@H](C)CO)C[C@H](C)[C@@H](CN(C)C(=O)c1ccncc1)OCCCC[C@@H](C)O2	-1
C[C@@H]1CN([C@H](C)CO)C(=O)c2cc(NS(=O)(=O)c3ccc(F)cc3)ccc2O[C@H]1CN(C)S(=O)(=O)c1ccccc1	17
O=C(OCc1ccc(Cl)cc1Cl)c1ccc2ccccc2n1	1
C[C@@H]1CN([C@H](C)CO)C(=O)Cc2cc(NC(=O)C3CC3)ccc2O[C@@H]1CN(C)Cc1ccc(C(F)(F)F)cc1	50
C[C@@H]1CN([C@H](C)CO)C(=O)Cc2cc(NC(=O)CCCN(C)C)ccc2O[C@H]1CN(C)S(=O)(=O)c1ccc(F)cc1	24
CC(=O)c1cccc(NC(=O)c2ccsc2NC(=O)COc2ccccc2)c1	18
COC(=O)c1cccc(NC(=O)CSc2nnc(-c3ccc(Cl)cc3)n2C)c1	39
O=[N+]([O-])c1ccc(OCc2nc(-c3cccnc3)no2)cc1	11
COc1ccc(-c2c(-c3ccc(OCc4cnn(-c5ccccc5)c4)c(C)c3O)n[nH]c2C)cc1	24
COc1cc(CNCc2ccccc2)cc(I)c1OCC#N	35
CNC(=O)c1cc(C#N)c(SC)s1	14
CC(C)NC(=O)Nc1cccc2c1O[C@@H](CN(C)C(=O)Nc1ccc(F)cc1)[C@@H](C)CN([C@@H](C)CO)C2=O	10
C[C@H](CO)N1C[C@H](C)[C@H](CN(C)S(C)(=O)=O)Oc2ccc(NC(=O)Nc3ccc(C(F)(F)F)cc3)cc2C1=O	-8
C=CCn1c(CCn2c3ccccc3c3ccccc32)n[nH]c1=S	45
C[C@@H]1CN([C@H](C)CO)C(=O)c2cccc(NC(=O)Nc3ccc(F)cc3)c2O[C@H]1CN(C)S(=O)(=O)c1cn(C)cn1	10
C[C@@H]1CN([C@H](C)CO)C(=O)c2cc(NS(=O)(=O)c3cn(C)cn3)ccc2O[C@@H]1CN(C)S(=O)(=O)c1cccs1	-4
C[C@H]1CN([C@@H](C)CO)C(=O)c2cc(NC(=O)Cc3cn(C)c4ccccc34)ccc2O[C@@H]1CN(C)Cc1ccccc1	11
Nc1nnc(SCCN2C(=O)c3ccccc3S2(=O)=O)s1	33
CSc1nnc2c(n1)OC(C)N(C(C)=O)c1ccccc1-2 (configuration not stated)	7
CSc1ccccc1NC(=O)CN(c1cc(C(F)(F)F)ccc1Cl)S(C)(=O)=O	-10
C[C@H](CO)N1C[C@H](C)[C@H](CN(C)CC2CC2)Oc2ccc(NC(=O)Cn3cnnn3)cc2C1=O	22
COc1ccccc1-c1cc(=O)c2ccccc2o1	18
C[C@H](CO)N1C[C@H](C)[C@H](CN(C)S(=O)(=O)c2cccs2)Oc2ccc(NS(=O)(=O)c3ccc(Cl)cc3)cc2C1=O	37
C[C@@H]1CN([C@H](C)CO)C(=O)Cc2cc(NS(=O)(=O)c3cn(C)cn3)ccc2O[C@@H]1CN(C)S(=O)(=O)c1ccccc1	-18
(listing goes on)
SMILES	NOMO-1 viab
CC1CCN(S(=O)(=O)c2cccc(C(=O)NC(C)(C)CO)c2)CC1	6
COc1ccc(S(=O)(=O)Nc2ccc3c(c2)CC(=O)N([C@H](C)CO)C[C@@H](C)[C@@H](CN(C)S(=O)(=O)c2c(C)noc2C)O3)cc1	7
C[C@H](CO)N1C[C@H](C)[C@H](CN(C)C(=O)Nc2cccc3ccccc23)Oc2ccc(NC(=O)Nc3cccc4ccccc34)cc2CC1=O	23
Cc1ccc(OC(=O)c2ccccc2)c(-n2nc3ccccc3n2)c1	-1
Cc1ccc(S(=O)(=O)Nc2ccc3c(c2)C(=O)N([C@H](C)CO)C[C@H](C)[C@@H](CN(C)C(=O)CCCN(C)C)OCCCC[C@@H](C)O3)cc1	-7
C[C@@H]1CN([C@@H](C)CO)C(=O)c2cc(NS(=O)(=O)c3cn(C)cn3)ccc2O[C@H]1CN(C)C(=O)NC1CCCCC1	7
Cc1noc(C)c1NC(=O)Nc1ccc2c(c1)C(=O)N([C@H](C)CO)C[C@H](C)[C@H](CN(C)Cc1ccc(-c3ccccc3)cc1)O2	28
COc1ccc(S(=O)(=O)Nc2ccc3c(c2)C(=O)N([C@H](C)CO)C[C@H](C)[C@H](CN(C)C(=O)Nc2cccc4ccccc24)OCCCC[C@@H](C)O3)cc1	23
Cc1ccc(S(=O)(=O)Nc2cccc3c2O[C@@H](CN(C)C(=O)Nc2c(C)noc2C)[C@H](C)CN([C@H](C)CO)C3=O)cc1	12
C[C@@H]1CN([C@@H](C)CO)C(=O)c2cccc(NC(=O)C3CCOCC3)c2O[C@@H]1CN(C)C(=O)Nc1ccc2c(c1)OCO2	-7
C[C@@H]1CN([C@@H](C)CO)C(=O)c2cc(NS(=O)(=O)c3ccc(Cl)cc3)ccc2O[C@H]1CN(C)S(=O)(=O)c1ccc(Cl)cc1	39
NNC(=O)c1cc(-c2ccccc2)n[nH]1	-1
NNC(=O)C1C(C(=O)NN)C1c1ccccc1 (configuration not stated)	22
COc1ccc(S(=O)(=O)N(C)C[C@H]2Oc3ccc(NC(=O)CCCN(C)C)cc3CC(=O)N([C@H](C)CO)C[C@H]2C)cc1	-18
Cc1noc(C)c1NC(=O)N(C)C[C@H]1Oc2ccc(NC(=O)NC3CCCCC3)cc2C(=O)N([C@H](C)CO)C[C@@H]1C	-17
C=CCC1OC(=O)CCNC(=O)C(C)N(C)C(=O)C(C(C)C)N(C)C(=O)C(C(C)CC)NC(=O)C2CCCN2C1=O (configuration not stated)	112*
C[C@@H]1CCCCO[C@H](CN(C)C(=O)Nc2cccc3ccccc23)[C@@H](C)CN([C@H](C)CO)C(=O)c2cc(NS(=O)(=O)c3cccs3)ccc2O1	70
O=C(NCCN1CCOCC1)c1cc(-c2ccccc2)on1	?
COc1ccc(C(=O)CSc2nnc(-c3ccccc3O)n2C)cc1	18
CCOC(=O)c1c(N)sc2c(OCC)c(Br)ccc12	?
COc1ccc(S(=O)(=O)Nc2ccc3c(c2)C(=O)N([C@@H](C)CO)C[C@@H](C)[C@H](CN(C)C(=O)NC(C)C)O3)cc1	6
CCOC(=O)c1c(NC(=S)Nc2nc(C)cc(C)n2)sc2c1CCCCCC2	26
C[C@H](CO)N1C[C@H](C)[C@@H](CN(C)S(C)(=O)=O)Oc2c(NC(=O)Nc3ccc(F)cc3)cccc2C1=O	-9
C[C@@H]1CN([C@H](C)CO)C(=O)c2cc(NC(=O)Nc3cccc4ccccc34)ccc2O[C@@H]1CN(C)Cc1ccc(-c2ccccc2)cc1	90*
COc1ccc(S(=O)(=O)N(C)C[C@@H]2OCCCC[C@@H](C)Oc3ccc(NC(=O)c4ccccc4)cc3C(=O)N([C@H](C)CO)C[C@@H]2C)cc1	61
CC(C)(c1ccccc1)c1cc(CN2CCOCC2)c(O)c(CN2CCOCC2)c1	32
Cc1nn(C(C)C(=O)Nc2cc(C(F)(F)F)ccc2Cl)c(C)c1[N+](=O)[O-] (configuration not stated)	25
C[C@@H]1CN([C@@H](C)CO)C(=O)c2cc(NC(=O)Nc3ccccc3)ccc2O[C@H]1CN(C)Cc1ccc(-c2ccccc2)cc1	112*
c1ccc(Sc2ncnc3c2oc2ccccc23)nc1	49
Cc1c(C)c(C)c(CSC2CC(=O)N(c3ccccc3)C2=O)c(C)c1C (configuration not stated)	5
C[C@H]1CN([C@@H](C)CO)C(=O)c2cc(NC(=O)CCN3CCOCC3)ccc2O[C@@H]1CN(C)S(=O)(=O)c1ccccc1	-2
COc1ccc(NC(=O)CSc2n[nH]c(N)n2)cc1Cl	19
CC(C)NC(=O)Nc1ccc2c(c1)C(=O)N([C@H](C)CO)C[C@@H](C)[C@H](CN(C)C)O2	-8
C[C@H]1CN([C@@H](C)CO)C(=O)c2cccc(N(C)C)c2O[C@@H]1CN(C)S(=O)(=O)c1cn(C)cn1	12
C[C@@H]1CN([C@H](C)CO)C(=O)c2cccc(NS(=O)(=O)c3cn(C)cn3)c2O[C@@H]1CN(C)C(=O)Nc1ccc(F)cc1	10
C[C@H]1CN([C@@H](C)CO)C(=O)Cc2cc(NS(C)(=O)=O)ccc2O[C@@H]1CN(C)S(=O)(=O)c1ccc(F)cc1	0
COc1cc(C2OCC3C(C)C=C(C)C2C3C)ccc1O (configuration not stated)	39
C[C@@H]1CN([C@@H](C)CO)C(=O)Cc2cc(NS(=O)(=O)c3ccc(Cl)cc3)ccc2O[C@@H]1CN(C)C(=O)Nc1cccc2ccccc12	11
Cc1noc(C)c1NC(=O)N(C)C[C@@H]1Oc2c(NS(=O)(=O)c3ccc(F)cc3)cccc2C(=O)N([C@@H](C)CO)C[C@@H]1C	3
Cc1cc(C)c(S(=O)(=O)N(CC(=O)Nc2ccccc2C(F)(F)F)C2CCCCC2)c(C)c1	33
CCOC(=O)c1c(-c2ccccc2)oc2ccc(O)c(CSCC(=O)Nc3ccccc3)c12	126*
